INS promoter inh: TRM-6 insulin promoter activity inhibition; TRM-6 cells (human fetal islet line), insulin promoter-eGFP reporter, imaging; reporter expression induced with tamoxifen; AID 1273; hit rate 0.9% among 130,000; inhibition, % at 2 µM;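 active = inhibition above the mean plus 3 SD, with well images judged a real hit on visual review, cut at about 60% in these data, passing the limit was not always enough; inconclusive = inhibition over the cutoff but images rejected on review; inactive = inhibition not above the cutoff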
RGS16-Gao: RGS16-Galphao interaction regulator (human); AID 1441; hit rate 0.38% among 220,000; O15492+P09471; bead-based flow cytometry RGS16-Galphao binding, fluorescence; actives lie on both sides; binding response (% of control), % at 10 µM;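 active = below 25% or above 175%, edge rows of some plates excepted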;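 also: Galphao activated by GDP with aluminum fluoride before binding; 100% = wells without compound and 0% = beads without RGS; some results beyond the cut were filed as inactive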
HSV replic up: HSV replication enhancement; hit rate 0.005% among 220,000; maximum fold increase; AID 1956; HSV replication augmentation in cells, fold increase;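 active = peak rise of 1.5-fold or more in the series; inconclusive = self-fluorescent or not available for retest; tested in PC3 cells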;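 also: first round at 10 µM; read as green reporter fluorescence; hits show the peak of a series up to 25 µM; 1 = signal of infected wells without compound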
GALR2 ag: GALR2 (human) receptor agonism | AID 803 | O43603 | GALR2-expressing cells, agonist activation read-out | activation, %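 (tested at 5 µM)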 | hit rate 0.48% among 140,000;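 active = above mean plus 3 SD of all compounds, about 5% in these data, not always enough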;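 also: 0% = vehicle buffer wells and 100% = reference agonist at full effect; tested in CHO reporter cells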
PKD1 inh: blocks activity of human protein kinase D1. Q15139. PKD1 kinase fluorescence polarization assay. inhibition, %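 (about 10 µM by stock and volumes)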. hit rate 0.056% among 200,000;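 active = inhibition of 50% or more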;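 also: controls were vehicle for no effect and a reference inhibitor for full effect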
Target sequence (Q15139 whole entry, looked up): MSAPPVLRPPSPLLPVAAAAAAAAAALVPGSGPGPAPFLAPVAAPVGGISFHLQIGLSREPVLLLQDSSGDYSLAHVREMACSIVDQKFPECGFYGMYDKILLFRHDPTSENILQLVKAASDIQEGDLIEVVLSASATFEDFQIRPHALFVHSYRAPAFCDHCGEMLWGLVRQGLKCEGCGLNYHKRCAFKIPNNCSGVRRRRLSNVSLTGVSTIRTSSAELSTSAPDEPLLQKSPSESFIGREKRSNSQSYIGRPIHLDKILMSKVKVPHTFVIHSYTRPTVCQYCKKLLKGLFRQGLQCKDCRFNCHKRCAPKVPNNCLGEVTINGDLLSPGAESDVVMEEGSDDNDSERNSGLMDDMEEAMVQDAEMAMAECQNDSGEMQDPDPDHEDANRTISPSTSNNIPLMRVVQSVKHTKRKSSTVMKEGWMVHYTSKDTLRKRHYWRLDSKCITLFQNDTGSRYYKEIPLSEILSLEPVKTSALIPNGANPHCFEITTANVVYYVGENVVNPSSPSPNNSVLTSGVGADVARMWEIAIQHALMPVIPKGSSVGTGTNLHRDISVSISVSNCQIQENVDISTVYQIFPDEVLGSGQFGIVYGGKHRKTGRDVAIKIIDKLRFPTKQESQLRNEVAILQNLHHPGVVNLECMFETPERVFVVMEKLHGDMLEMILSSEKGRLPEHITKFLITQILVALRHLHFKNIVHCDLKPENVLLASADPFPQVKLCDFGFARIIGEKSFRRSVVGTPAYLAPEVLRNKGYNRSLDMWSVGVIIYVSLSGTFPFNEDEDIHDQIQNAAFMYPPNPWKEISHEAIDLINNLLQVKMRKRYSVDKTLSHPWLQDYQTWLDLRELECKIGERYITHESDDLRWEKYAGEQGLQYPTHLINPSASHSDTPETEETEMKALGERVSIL
INS promoter inh cell count: recorded beside INS promoter inh, whose call it bears; normalized cell count, %; measured here: cell count, toxicity; reference of the scale not given here;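 cells exposed to compound for 48 h; stained nuclei by imaging scaled within each plate; lower means fewer cells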
HSV replic up primary fold: second read-out of HSV replic up, no call of its own (marks repeat the call); fold increase; compound at 10 µM; measured here: primary screen fold increase 10 uM; tested in PC3 cells;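 GFP signal in the first replicate; 1 = infected wells without compound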
Active calls of the source: *; i = inactive; ? = inconclusive; . = not tested or not shown; [ ] = another dose, or the depositor's remark.

Second line of a record: INS promoter inh	INS promoter inh cell count	RGS16-Gao	HSV replic up	HSV replic up primary fold	GALR2 ag	PKD1 inh
NC(CC(=O)O)c1ccc(Br)cc1 (centres undefined)
 : .	.	179*[activator]	i	1.4	0.6	-12
Cc1noc(C)c1CSc1nnc(-c2ccccc2F)n1CCc1ccccc1
 : -29	46	96	i	0.6	-0.3	-6
Cc1ccc(C)c(N(C)C(=O)c2coc(=O)c3ccccc23)c1
 : 17	101	87	i	0.99	-0.8	-10
Cc1cc(S(=O)(=O)NCC(C)C)ccc1OCC(=O)NCC1CCCO1 (centres undefined)
 : -16	114	104	i	0.89	-0.9	-5
O=C1CN(c2ccc(Cl)cc2)C2(CCCCC2)S1
 : -11	103	106	i	1	-0.7	-16
CC(=O)c1c(C)nc(-c2ccc(OCC(=O)Nc3ccccc3)cc2)n1O
 : 21	98	98	i	0.62	.	-3
COC(=O)c1cn(C(=O)c2ccccc2Cl)c2ccccc12
 : 0	149	102	i	0.86	.	-6
O=C(N1CCN(c2ccccc2F)CC1)C12CC3CC(CC(C3)C1)C2
 : 3	197	92	i	1	-1.1	-23
Cc1ccc(-n2nc(C(=O)NCc3ccc(C)o3)c3c4ccccc4n(C)c3c2=O)cc1
 : -8	131	92	i	0.84	14*	9
COc1ccc(/C=C/C(=O)NC(=S)NNC(=O)Cc2cccs2)cc1OC
 : -2	84	99	i	0.84	-3.7	-5
CCC(C)NC(=O)CNC(=O)Cn1c(C)cc2ccccc2c1=O (centres undefined)
 : .	.	102	i	0.85	-1.4	4
CCC(N)C12CC3CC(CC(O)(C3)C1)C2 (centres undefined)
 : 57	141	95	i	0.9	-4.0	2
CN(C)S(=O)(=O)N1CCN(c2cc(Cl)ccc2Cl)CC1
 : 19	72	98	i	0.77	-2.5	-6
O=C1C2CC=CCC2C(=O)N1c1ccc(NCCc2ccc(Cl)cc2)c([N+](=O)[O-])c1 (centres undefined)
 : 20	90	100	i	0.87	-1.2	-14
CCO[C@@H]1OC(C(=O)O)=C[C@H](c2csc3ccccc23)[C@H]1CCCO
 : .	.	102	i	0.97	.	4
Cc1cc(Br)c(Cl)cc1NC(=O)CN1C(=O)C2C3CC(c4ccccc4)C(C3)C2C1=O (centres undefined)
 : -11	124	120	i	0.69	-0.8	4
Cc1ccc(-c2noc(=O)n2CC(=O)c2ccc(Cl)cc2)cc1
 : -64	98	100	i	0.89	.	-11
C#CCOCCOCCOCCNc1nc(N2CCN(C(=O)[C@H](CCC(=O)O)n3cc(C(N)Cc4ccc(O)cc4)nn3)CC2)nc(N2CCN(C(=O)[C@H](CCC(=O)O)n3cc(C(N)CC(C)C)nn3)CC2)n1 (some centres undefined)
 : .	.	90	i	0.96	.	8
Cc1ccc(NC(=O)NNC(=O)c2snnc2C)cc1
 : 60	134	100	i	0.96	.	1
COc1cc(/C=c2\sc3n(c2=O)C(c2ccccc2)C(c2ccccc2)=NN=3)ccc1O (centres undefined)
 : -24	100	104	?	.	-2.5	-7
Fc1ccc(Nc2nnc(C(F)(F)F)s2)cc1Cl
 : .	.	106	i	0.8	.	.
CCCSc1nc2c(c(=O)[nH]c(=O)n2C)n1CCc1ccccc1
 : -19	222	105	i	0.89	1.8	-16
COc1ccc(-c2noc(CSc3nc(-c4ccccc4)cc(=O)[nH]3)n2)cc1OC
 : 10	121	99	i	0.87	-2.0	0
COc1ccccc1NC(=S)NCc1ccccn1
 : .	.	104	i	1.1	0.0	1
Cc1ccc(NC(=O)COC(=O)c2cccc3c2C(=O)c2ccccc2C3=O)c(C)c1
 : .	.	101	i	0.98	0.6	-16
NC(=O)COC(=O)c1cc(S(=O)(=O)N2CCN(c3ccccc3)CC2)ccc1Cl
 : .	.	100	i	0.89	.	9
CC1CCc2cc(F)ccc2N1C(=O)CCC(=O)O (centres undefined)
 : .	.	104	i	1.1	-1.6	-18
CCOC(=O)c1sc(NC(=S)NC(=O)C2CC2)cc1C
 : .	.	111	i	0.9	0.7	7
COc1ccc(CCNC(=O)C2CCCN(S(=O)(=O)c3cnc[nH]3)C2)cc1OC (centres undefined)
 : .	.	110	i	0.88	-3.2	3
COc1ccc(C(=O)NCc2oc(-c3ccccc3)cc2C(=O)O)cc1
 : 66	98	104	i	1	-1.5	-1

Next part
Second line of a record: INS promoter inh	INS promoter inh cell count	RGS16-Gao	HSV replic up	HSV replic up primary fold	GALR2 ag	PKD1 inh
COc1ccc2nccc(C(N)=O)c2c1
 : .	.	104	i	1.1	.	.
COc1ccc(OC)c(-n2c(-c3ccc(S(C)(=O)=O)cc3)cc(C=O)c2C)c1
 : 0	68	90	i	0.96	-0.2	-7
COCCNC(=S)NCc1cccs1
 : .	.	102	i	0.88	.	11
O=C(NCc1ccccn1)c1cccc(NS(=O)(=O)c2ccccc2F)c1
 : 29	53	75	i	1.1	-1.0	-7
COc1ccc(OCCCC(=O)NCC(C)C)cc1
 : .	.	105	i	1	-1.0	7
N#Cc1ccc(-c2ccc(F)cc2)nc1Oc1ccccc1
 : .	.	105	i	0.93	-0.8	2
Cc1c(-n2cc(C(=O)O)c(=O)c3cc(F)c(N4CCCC(O)C4)c(F)c32)c(=O)n(-c2ccccc2)n1C (centres undefined)
 : 14	111	103	i	0.98	.	0
Cc1ccc(C=C2C(=O)c3ccccc3C2=O)o1
 : .	.	105	i	0.98	-2.5	-5
CCN(CC)S(=O)(=O)c1cccc(-c2n[nH]c(=S)n2C(C)COC)c1 (centres undefined)
 : .	.	95	i	0.97	.	8
Cc1ccc(C(=O)NCCc2nnc3ccc(SCC(=O)Nc4c(C)cc(C)cc4C)nn23)cc1
 : -16	126	100	i	0.79	-0.3	-8
CCSc1nc(O)cc(=O)n1-c1ccc(OC)cc1
 : 27	73	99	i	0.89	-0.9	-7
CCC(Sc1nc2c(c(=O)[nH]1)CCC2)C(=O)Nc1cccc(OC)c1 (centres undefined)
 : .	.	101	i	0.88	-1.0	-10
O=C(O)CCC(=O)N1N=C(c2ccc(Br)cc2)CC1c1cccs1 (centres undefined)
 : 26	104	97	i	0.9	.	1
COc1ccc(CCn2c(NCc3ccco3)nc3c2c(=O)[nH]c(=O)n3C)cc1
 : .	.	95	i	1	-0.4	17
Cc1ccc(C)c(N(CC(=O)NN=C2CCCCCCC2)S(C)(=O)=O)c1
 : -19	110	101	i	1	-1.7	4
CCN=C1SC(CC(=O)Nc2ccc(C(F)(F)F)cc2)C(=O)N1CC (centres undefined)
 : .	.	71	i	0.95	-2.0	3
COc1ccccc1NC(=S)NNC(=O)c1ccc(O)cc1
 : -34	72	98	i	1	-2.2	-6
CC(C)c1cc(C(=O)N/N=C/c2c[nH]c3ccccc23)n[nH]1
 : .	.	97	i	0.94	.	.
COC(=O)NCc1ccc(CNC(=O)OC)cc1
 : .	.	99	i	0.93	-2.1	-2
CCCOc1ccc(CN(CCO)CCO)cc1C(=O)OC
 : 44	144	102	i	1.2	-1.7	2
CCN(CC)c1ccc(/C=N/Nc2ccc(C)cc2)c(O)c1
 : -30	117	99	i	1.1	-0.8	-10
CC(C)(C)CC(=O)Nc1cccc2c1CCCC2
 : -45	51	530	i	0.82	0.6	-6
O=C(CCn1c(=O)[nH]c2ccccc2c1=O)N1CCN(c2ccc(Cl)cc2)CC1
 : .	.	99	i	1	-2.8	-7
CCn1c(CSc2ncccn2)nnc1SCC(=O)N1c2ccccc2CC1C (centres undefined)
 : -51	59	101	i	1.1	-1.3	-2
COc1ccc(-c2cc(C(=O)Nc3c(Cl)cc(Cl)cc3Cl)c3ccccc3n2)cc1OC
 : -56	131	104	i	0.83	4.9*	1
COCCCN1C(=O)C(=O)/C(=C(/O)c2ccc(C)cc2)C1c1ccccc1 (centres undefined)
 : .	.	99	i	0.99	-2.3	-9
CCNC(=S)N/N=C(\C)c1cccc(OC)c1
 : 42	109	106	i	0.95	.	2
Cc1cccc(NC(=O)NCCc2ccc(Cl)cc2)c1
 : .	.	99	i	0.96	.	-6
O=C(CCC(=O)c1ccc(F)cc1)OC1CCOC1=O (centres undefined)
 : .	.	105	i	0.97	-5.3	2
COc1cccc(N/C(SCc2cccc([N+](=O)[O-])c2)=C(/C#N)C(=O)NCc2cccs2)c1
 : -31	41	59	i	0.9	0.0	-12

(listing goes on)
Second line of a record: INS promoter inh	INS promoter inh cell count	RGS16-Gao	HSV replic up	HSV replic up primary fold	GALR2 ag	PKD1 inh
O=[N+]([O-])c1cccc(/C=N/Nc2nccnc2Cl)c1
 : 13	79	100	i	1.2	-1.1	3
Cc1cc(C)n(C(=O)c2ccc(NC(=O)C3COc4ccccc4O3)cc2)n1 (centres undefined)
 : -14	230	107	i	0.93	-4.9	-1
COC(=O)C1CCN(C(=O)Cc2ccc(Br)cc2)CC1
 : 11	193	54	i	0.9	0.7	6
CCCN1CN(Cc2ccccc2)CNC1=S
 : .	.	113	i	1	-1.3	-3
S=C(Nc1ccccc1)N1CCOCCOCCN(C(=S)Nc2ccccc2)CCOCCOCC1
 : .	.	99	i	1.2	.	.
O=C(Nc1ccc(Cl)cc1)C1CCCN(S(=O)(=O)c2cnc[nH]2)C1 (centres undefined)
 : .	.	99	i	0.88	-1.2	12
CC(C)C(=O)NC(Nc1ccccc1F)C(Cl)(Cl)Cl (centres undefined)
 : 3	82	109	i	1	-1.9	-5
O=C(Oc1ccccc1)c1cc2ccccc2o1
 : 14	45	98	i	1	0.2	5
CCOC(=O)N1CCN(CCC(=O)Nc2ccc(C)c(Br)c2)CC1
 : .	.	104	i	0.79	-3.1	-3
COc1ccc(NC(=O)CN2C(=O)C(C)Oc3ccccc32)c(OC)c1 (centres undefined)
 : -100	228	100	i	1	-0.5	1
O=C(NCc1ccc(-c2nc3ccccc3s2)cc1)c1ccco1
 : 4	125	92	i	1.1	-1.7	-1
CCOc1ccc2[nH]c(=O)c(CN(CC3COCCO3)C(=O)c3ccc(C)cc3)cc2c1 (centres undefined)
 : .	.	107	i	0.89	.	-5
O=C(Nc1ccc(Sc2ccc(Br)cc2)cc1)c1ccco1
 : 50	61	99	i	1.1	0.7	1
Cc1cccc(NC(=O)CS(=O)(=O)c2c[nH]c3ccccc23)c1C
 : .	.	100	i	0.84	-4.1	4
Clc1ccc(-c2nnc(-c3ccco3)o2)cc1
 : .	.	103	i	0.95	-1.2	-3
Cc1ccc(O)c(/C=N/NC(=O)C2=NNC(c3ccccc3)(c3ccccc3)C2)c1
 : 12	68	87	i	1.1	-1.0	1
CSC1=C(C#N)C2(CCCC2)C(C#N)=C(N)N1
 : .	.	.	i	0.82	-0.5	0
CCn1c(C(=O)N2CCCC(C(=O)O)C2)cc2sccc21 (centres undefined)
 : 19	143	24*	i	0.91	-2.9	-3
O=[N+]([O-])c1cccc(C(=Nc2ccc(Cl)cc2)NO)c1
 : 14	104	97	i	0.82	-0.7	-14
O=C1CN(C(=O)CSc2nncs2)c2ccccc2N1
 : .	.	100	i	0.82	.	-5
CN(c1ccc(OCC(=O)OCC(=O)Nc2ccccc2)cc1)S(=O)(=O)c1cccs1
 : 0	115	105	i	1	-1.1	6
O=C(CCCSc1nnc(-c2cccs2)n1CC1CCCO1)c1ccccc1 (centres undefined)
 : .	.	102	i	0.89	-1.5	0
COCCCn1cc(C(=O)c2ccccc2OCC(=O)Nc2cccc(F)c2)cc(C#N)c1=O
 : -26	98	97	i	0.97	.	-2
COc1ccccc1NC(=O)C1=C(C)NC(=O)NC1c1cccs1 (centres undefined)
 : .	.	96	i	0.96	.	2
CC(=O)c1cc(-c2ccccc2)n(CC(=O)Nc2cccc(C)c2)c1C
 : -12	112	15	i	1.1	-1.6	-12
CCOC(=O)C1CN(S(=O)(=O)c2ccc(F)cc2)C1
 : 36	128	119	i	0.96	-1.1	-11
CCC(=O)NC(c1ccco1)c1cc(Cl)c2cccnc2c1O (centres undefined)
 : .	.	91	i	0.98	.	7

Part of the list above, bar-delimited:
smiles | INS promoter inh | INS promoter inh cell count | RGS16-Gao | HSV replic up | HSV replic up primary fold | GALR2 ag | PKD1 inh
COC(=O)C1CCN(C(=O)Cc2ccc(Br)cc2)CC1 | 11 | 193 | 54 | i | 0.9 | 0.7 | 6
CN(c1ccc(OCC(=O)OCC(=O)Nc2ccccc2)cc1)S(=O)(=O)c1cccs1 | 0 | 115 | 105 | i | 1 | -1.1 | 6
O=C(Oc1ccccc1)c1cc2ccccc2o1 | 14 | 45 | 98 | i | 1 | 0.2 | 5
S=C(Nc1ccccc1)N1CCOCCOCCN(C(=S)Nc2ccccc2)CCOCCOCC1 | . | . | 99 | i | 1.2 | . | .
CCC(=O)NC(c1ccco1)c1cc(Cl)c2cccnc2c1O (centres undefined) | . | . | 91 | i | 0.98 | . | 7
